Cruzain noTriton: qHTS Assay for Promiscuous and Specific Inhibitors of Cruzain (without detergent); Cruzipain (Trypanosoma cruzi), P25779; purified cruzain, Z-FR-AMC fluorescence, no detergent; Potency, µM, inactives show max response, negative = inhibition, most hits filed as inhibitors; 200,000 compounds, 2.3% hits; active means well fitted curve in the direction sought with a large enough effect; inconclusive means small, poorly fitted or top-dose-only effect, or another doubt; inactive means no such curve, though single readings can be large; an effect the other way counts as inactive or inconclusive;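 further: plate controls were enzyme without inhibitor for no effect and buffer without enzyme for full effect; nearly all actives have a fitted effect of over 40% in size; top concentration of the series not given in the record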
Target sequence (P25779 123-467 limits assumed): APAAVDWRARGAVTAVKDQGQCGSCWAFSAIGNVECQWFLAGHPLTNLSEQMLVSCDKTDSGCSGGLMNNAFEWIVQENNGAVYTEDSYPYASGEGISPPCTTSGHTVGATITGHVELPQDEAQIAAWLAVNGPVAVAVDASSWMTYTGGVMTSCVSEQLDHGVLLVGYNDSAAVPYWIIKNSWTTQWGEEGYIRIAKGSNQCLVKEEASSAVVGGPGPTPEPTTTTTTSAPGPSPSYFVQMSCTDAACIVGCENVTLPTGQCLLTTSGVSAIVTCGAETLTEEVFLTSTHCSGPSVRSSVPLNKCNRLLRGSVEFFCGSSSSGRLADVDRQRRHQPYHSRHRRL
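Purified cruzain at 1.5 nM, pre-incubated 15 min with compound at room temperature in 100 mM sodium acetate pH 5.5, 5 mM DTT, 0.00005% Triton X-100. Reaction started with 2 uM Z-FR-AMC; AMC fluorescence increase over 60 s gives rate.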
RE007 growth inh: qHTS Assay for Inhibitors of the HIV-1 protein Vpr | S. pombe RE007 Vpr strain, BacTiter-Glo ATP luminescence, 24 h; control for the full effect not named in the record | Potency, µM (top dose mostly 92.2 µM), for inactives: at the highest dose activity change, negative = less growth | AID 651644, 2012 | 360,000 compounds, 0.21% hits; active = well fitted falling curve with a large enough effect; inconclusive = small, poorly fitted or top-dose-only effect; inactive = no such curve, though single readings can be large or run the other way;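 further: on the % scale 0 is the no-effect control and ±100 the full control effect; nearly all actives have a fitted effect of over 50% in size; the assay follows cell death caused by Vpr and the record does not say whether a fall means rescue or toxicity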
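Fission yeast strain RE007, carrying one chromosomally integrated HIV-1 vpr copy, was seeded at OD 0.01 in PMG+AL medium with 23 nL pinned compound. After 24 h at 30 °C and 99% humidity, viability was read by BacTiter-Glo luminescence.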
SARS PLP yeast: qHTS of Yeast-based Assay for SARS-CoV PLP. Potency, µM (series often up to 32.9 µM), inactives show at the highest dose activity, positive = growth rescue. 330,000 compounds, 0.19% hits. S. cerevisiae expressing SARS-CoV PLpro, growth rescue; control for the full effect not named in the record; further: 0% is about no effect; nearly all actives have a fitted effect of over 55% in size; growth read by luminescence after 48 h
Cruzain Triton: qHTS Assay for Promiscuous and Specific Inhibitors of Cruzain (with detergent); 200,000 compounds, 0.43% hits; purified cruzain, Z-FR-AMC fluorescence, 0.01% Triton; Potency, µM, inactives show max response, negative = inhibition, most hits filed as inhibitors; active means well fitted curve in the direction sought with a large enough effect; inconclusive means small, poorly fitted or top-dose-only effect, or another doubt; inactive means no such curve, though single readings can be large; an effect the other way counts as inactive or inconclusive;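 further: plate controls were neutral wells for no effect and buffer without enzyme for full effect; nearly all actives have a fitted effect of over 40% in size; top concentration of the series not given in the record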
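Cysteine protease activity tested under reducing, mildly acidic conditions (100 mM sodium acetate pH 5.5, 5 mM DTT) plus 0.01% Triton X-100. Cruzain 1.5 nM; substrate Z-FR-AMC 2 uM; 15 min compound preincubation at room temperature.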
NS1 function inh: qHTS Assay for Inhibitors of Influenza NS1 Protein Function. Potency, µM (series often up to 46.1 µM), for the others: top-dose activity, positive = more growth. 270,000 compounds, 0.4% hits. AID 2326, 2010. S. cerevisiae slowed by influenza A NS1, growth recovery by OD600; further: actives are rising curves; nearly all actives have a fitted effect of over 50% in size
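In this qHTS, NS1 from influenza A is expressed in budding yeast, where it slows growth. Cells are switched from glucose to 2% galactose medium (pH 6.0, -URA), treated with compound, and growth recovery is read at OD600.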
LASV entry inh: qHTS for Inhibitors of binding or entry into cells for Lassa Virus; Lassa virus pseudotype entry inhibition, cell reporter; control for the full effect not named in the record; Potency, µM (series often up to 37.9 µM), for inactives: top-dose activity change, negative = inhibition, hits mostly inhibitors; 300,000 compounds, 1.2% hits; active means well fitted inhibition curve with a large enough effect; inconclusive means small, poorly fitted or top-dose-only effect, or effect the other way; inactive means flat fitted curve, though single readings scatter; tested in HEK293 cells; further: on the % scale 0 is the no-effect control and ±100 the full control effect; nearly all actives have a fitted effect of over 50% in size; luciferase read-out
2A StopGo: High Throughput Screening for Foot and Mouth Disease Virus Antivirals; 410,000 compounds, 1.2% hits; Potency, µM (top dose mostly 57.9 µM), inactives show top-dose signal change, negative = less light; human cells with a luciferase reporter of 2A StopGo recoding; control for the full effect not named in the record; active = well fitted falling curve with a large enough effect; inconclusive = small, poorly fitted or top-dose-only effect; inactive = no such curve, though single readings can be large or run the other way; tested in HEK293T cells; further: on the % scale 0 is the no-effect control and ±100 the full control effect; nearly all actives have a fitted effect of over 45% in size; luciferase light after 4 h
Marburg entry inh: qHTS for inhibitors of binding or entry into cells for Marburg Virus; Potency, µM (highest dose often 37.8 µM), without a hit: at the highest dose activity change, negative = inhibition, most hits filed as inhibitors; 300,000 compounds, 1.8% hits; Marburg virus pseudotyped entry inhibition, cell reporter; control for the full effect not named in the record; about a third of the inactives were read at about 46 µM; active = well fitted inhibition curve with a large enough effect; inconclusive = small, poorly fitted or top-dose-only effect, or effect the other way; inactive = flat fitted curve, though single readings scatter; tested in HEK293 cells; about a fifth of its hits are not listed in these tables; further: on the % scale 0 is the no-effect control and ±100 the full control effect; luciferase read-out
* = called active by the depositor; ? = inconclusive; . = no result given; [ ] = dose if it differs, or a comment. Unless noted, the call rests on the fitted dose curve; in most records, active means well fitted rising curve with a large enough effect; inconclusive means small, poorly fitted or top-dose-only effect; inactive means no such curve, though single readings can be large or run the other way. Potency means the concentration at half of the fitted maximal effect.

SMILES	Cruzain noTriton	RE007 growth inh	SARS PLP yeast	Cruzain Triton	NS1 function inh	LASV entry inh	2A StopGo	Marburg entry inh
Cc1noc(C)c1COC(=O)c1cnc(Cl)c(Cl)c1	.	3.0%	-1.7%	.	1.8%	-10.5%	-22.5%	?
CC(C(=O)NCc1ccccc1)n1ccc2cc(S(=O)(=O)N3CCCC3)ccc21 (stereo not given)	-4.3%	.	.	-4.8%	.	-20.6%[46.1 µM]	-27.5%	.
CCC(C)NC(=O)CSc1nnc(-c2ccc(C(C)(C)C)cc2)n1C (stereo not given)	11.4%	-8.2%	4.9%	-3.7%	-0.6%	?	.	6.9%
Cn1c(=O)oc2cc(S(=O)(=O)NCCC(=O)N3CCc4ccccc43)ccc21	-2.6%	4.2%	-5.1%	1.1%	-1.5%	18.0%	10.2%	-1.8%
COc1ccc(NC(=O)CSC2=Nc3ccccc3C3=NC(CC(=O)NCc4ccc(F)cc4)C(=O)N23)cc1 (stereo not given)	22.5%	.	.	-4.1%	.	4.7%[46.1 µM]	-15.5%	.
O=C(Nc1ccc(C(F)(F)F)cc1)c1cnc(N2CCN(c3ccccn3)CC2)c2ccccc12	.	-4.1%	9.2%	.	.	-1.8%	7.08µM*	-5.5%[46.1 µM]
CN(CC(=O)NCc1ccco1)S(=O)(=O)c1cccc2cccnc12	-6.3%	-11.9%	2.8%	6.0%	-13.6%	.	-14.8%	.
Cc1ccc(CN2CC(C(=O)N3CCN(S(=O)(=O)c4cccc(F)c4)CC3)CC2=O)cc1 (stereo not given)	.	2.1%	.	.	.	15.3%[46.1 µM]	?	-12.4%
COc1ccc(CNC(=O)COC(=O)c2ccc(F)c(S(=O)(=O)N3CCCCC3)c2)cc1OC	.	0.4%	0.4%	.	-3.1%	.	?	.
Nc1c2c(nn1-c1ccc(C(=O)O)cc1)CNC2	.	9.3%	1.9%	.	1.7%	6.8%[46.1 µM]	-18.7%	14.3%[46.1 µM]
COc1cccc2c1C(=O)C=C(C)C2=O	-2.0%	?	-79.1%	-7.0%	-32.4%	11.2µM*	?	11.2µM*
CC1=C(C)CC(C(=O)Nc2nccs2)C(C(=O)O)C1 (stereo not given)	.	2.0%	2.1%	.	15.9%	1.0%[46.1 µM]	-4.0%	-9.2%[46.1 µM]
C=CCOc1ccccc1CN1CCC(Cc2ccccc2)CC1	.	-5.5%	1.3%	.	-30.6%	?	0.0%	?
Cc1ccc(C)c(N(C)S(=O)(=O)c2cccc3nsnc23)c1	1.0%	19.0%	-4.5%	2.7%	-9.0%	-17.2%	-25.9%	-2.3%
CC1(C)Cc2nc(Cl)c(C(N)=O)cc2CO1	.	-7.1%	-0.7%	.	4.8%	.	8.9%	.
CC1CCN(C(=O)Cn2c(=O)n(Cc3ccco3)c(=O)c3sccc32)CC1	.	-13.2%	-6.0%	.	7.0%	13.7%	1.3%	3.9%[46.1 µM]
O=C(CSc1nnnn1-c1ccc(C(=O)O)cc1)NC1CC1	.	0.2%	?	.	3.5%	.	-9.1%	.
CCOc1ccc(S(=O)(=O)N2Cc3ccccc3CC2C(=O)O)cc1 (stereo not given)	.	-5.3%	2.5%	.	-34.3%	.	1.6%	.
Cc1ccc(S(=O)(=O)/N=C(/c2ccc(F)cc2)N2CCOCC2)cc1	.	-5.8%	-0.3%	.	14.4%	1.0%	-12.7%	2.2%
O=C(Nc1cccc(Cl)c1)N(CCCN1CCOCC1)Cc1ccccc1F	4.1%	4.8%	-19.5%	2.0%	-53.5%	1.4%	21.1%	-9.3%
O=C(NCc1ccc(F)cc1)c1ccc(Br)o1	.	-0.2%	-2.2%	.	1.6%	14.5%	-2.9%	?
CCN(CC)C(=O)Cn1cc(C(=O)C2CC2)c2ccccc21	.	-15.0%	0.2%	.	2.8%	-1.8%	12.7%	20.9%[46.1 µM]
CCN(CC)c1ccc(C2C(C(=O)OC)=C(C)NC(C)=C2C(=O)OC)cc1	10.6%	21.5%	5.7%	-1.1%	1.5%	2.2%	16.8%	-23.3%
CC(C)CN(C(=O)Cn1c(=O)cnc2ccccc21)C1CCS(=O)(=O)C1 (stereo not given)	.	-18.1%	-0.7%	.	.	6.0%	9.0%	-12.7%
O=C(Nc1ccc(Br)cc1F)N1CCC2(CC1)Oc1ccccc1C(=O)N2Cc1ccccc1F	?	.	.	-2.4%	.	.	-8.3%	0.3%[46.1 µM]
Cc1ccc(CN2CCCn3nc(C(=O)NCc4ccc(N(C)C)cc4)cc3C2=O)cc1	-2.4%	.	.	-4.5%	.	4.0%[46.1 µM]	-11.8%	.
Cn1c(=O)c2c(SCC(=O)N3CCOCC3)nc(-c3ccccc3F)nc2n(C)c1=O	.	?	-3.9%	.	13.3%	-1.6%	-24.1%	-14.2%
CCOC(=O)/C=C1\Nc2ccccc2OC1=O	-8.6%	-7.8%	-44.8%	-4.6%	-25.1%	1.3%	16.7%	-7.0%
COc1ccc(CC2C(=O)Nc3ccc(Br)cc32)cc1OC (stereo not given)	-6.1%	.	.	-5.3%	.	-4.1%[46.1 µM]	-26.9%	2.1%[46.1 µM]
CCOP(=O)(c1ccccc1)c1nc(-c2ccccc2C)oc1N1CCCCC1 (stereo not given)	?	40.6%	-12.0%	-23.9%	-104.1%	?	0.0%	?
CC1CCC(NC(=O)CSc2nncn2C)CC1 (stereo not given)	.	-7.9%	6.3%	.	.	11.2%	-10.3%	2.5%
Cn1c(=O)cc(OCC(=O)N2CCN(c3ccccc3)CC2)c2ccccc21	3.1%	.	.	1.3%	.	12.4%[46.1 µM]	-16.0%	-0.6%[46.1 µM]
FC(F)(F)c1ccc(/C=N/N2CCN(Cc3ccccc3)CC2)cc1	-4.6%	-24.8%	-12.3%	-0.1%	5.8%	-7.2%	-19.5%	24.2%
O=C1CC(NCC2CCCO2)C(=O)N1c1ccc(F)cc1 (stereo not given)	.	-20.6%	1.0%	.	1.2%	.	-4.2%	.
O=S(=O)(c1ccccc1)c1nc(NC2CC2)sc1Cl	.	-0.7%	-6.2%	.	.	-22.5%	-19.3%	-3.4%[46.1 µM]
CN(CC(=O)NCCc1ccc(F)cc1)Cc1cccs1	.	-0.7%	0.8%	.	.	28.5%	0.0%	?

Fetched one by one from the list above, 2 records:
SMILES	Cruzain noTriton	RE007 growth inh	SARS PLP yeast	Cruzain Triton	NS1 function inh	LASV entry inh	2A StopGo	Marburg entry inh
O=S(=O)(c1ccccc1)c1nc(NC2CC2)sc1Cl	.	-0.7%	-6.2%	.	.	-22.5%	-19.3%	-3.4%[46.1 µM]
CN(CC(=O)NCCc1ccc(F)cc1)Cc1cccs1	.	-0.7%	0.8%	.	.	28.5%	0.0%	?

Next part:
SMILES	Cruzain noTriton	RE007 growth inh	SARS PLP yeast	Cruzain Triton	NS1 function inh	LASV entry inh	2A StopGo	Marburg entry inh
CC(=O)c1ccc(OCC(O)CN2CCN(S(=O)(=O)c3c(C)c(C)cc(C)c3C)CC2)cc1 (stereo not given)	.	8.4%	0.5%	.	0.1%	?	-19.2%	?
CN(C(=O)CSc1nnc(-c2ccc(Cl)cc2)n1CC1CCCO1)C1CCS(=O)(=O)C1 (stereo not given)	.	-1.5%	0.8%	.	.	5.0%	16.7%	-9.6%[46.1 µM]
Cc1ccc2c(c1)N(CC(=O)NC1CCCC1)C(=O)C(C)O2 (stereo not given)	.	1.3%	-1.2%	.	2.4%	7.8%	18.1%	-7.5%[46.1 µM]
COc1cc(OC)c(CNC2CCCCCC2)cc1Br	.	7.9%	0.3%	.	.	1.4%	-26.6%	16.2%[46.1 µM]
CCOC(=O)c1cccc(NC(=O)CNS(=O)(=O)c2cccs2)c1	-1.8%	5.6%	3.4%	-1.5%	-4.5%	-13.9%	5.7%	-14.0%
COc1ccc(N2CCN(C(c3ccccc3)c3sc4nc(-c5ccco5)nn4c3O)CC2)cc1 (stereo not given)	8.5%	.	.	-0.1%	.	4.8%[46.1 µM]	13.9%	.
CC1CCCN(CCC(=O)Nc2ccc(Br)cc2)C1 (stereo not given)	5.9%	-1.4%	4.3%	-0.1%	3.1%	-11.3%	.	?
CC(=O)Nc1cc(C(=O)NCc2ccc(F)cc2Cl)ccc1Sc1ccc(Cl)cc1	1.7%	.	.	1.8%	.	29.1%[46.1 µM]	-7.7%	.
CC1(C)C(=O)Nc2ccccc2N1C(=O)CN1C(=O)NC(CCc2ccccc2)C1=O (stereo not given)	.	-0.5%	0.7%	.	-3.4%	.	-12.9%	.
Cc1cccc(N2C(=O)CSC23C(=O)N(CC(=O)NCc2ccccc2Cl)c2ccccc23)c1 (stereo not given)	?	.	.	-7.2%	.	-18.5%[46.1 µM]	-16.0%	.
CC(=O)Nc1ccc(NC(=O)COc2ccc(-c3ccccc3)cc2)cc1	.	-1.1%	3.3%	.	8.6%	.	9.3%	.
CCOC(=O)c1cc2c(=O)n3ccccc3nc2n(Cc2ccco2)c1=NC(=O)c1ccc(OC)cc1OC	.	-12.7%	6.1%	.	.	0.0%	21.3%	?
COc1ccc(/C=N/n2c(=O)[nH]c3c([nH]c4ccc(Cl)cc43)c2=O)cc1CN1CCCCC1	.	0.3%	1.3%	.	-1.2%	5.7%	-14.3%	?
O=C(NC1CCCC1)C1CCCN(S(=O)(=O)c2ccc(F)cc2)C1 (stereo not given)	.	-0.1%	15.5%	.	3.5%	-25.8%	-22.0%	11.7%[46.1 µM]
CSc1ccc(Cl)c(C(=O)Nc2nccs2)c1	.	10.9%	2.4%	.	10.3%	.	-5.3%	.
CC(OC(=O)c1snc(C(=O)NC2CCCCC2)c1N)C(=O)NC(C)(C)C (stereo not given)	17.3%	2.8%	2.0%	-8.1%	0.7%	?	?	?

Screens: PubChem BioAssay, National Center for Advancing Translational Sciences (NCATS)
